Sa helicase inh – blocks Staphylococcus aureus DNA helicase; purified S. aureus helicase, fluorescence unwinding assay; about half of the hits fall short of the stated cut; inhibition, %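 (tested at about 80 µM)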; 120,000 compounds, 0.05% hits; AID 485395;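 active = both duplicates at 50% or more, or one of them with a favoured structure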;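 note: 0% = mean of negative control wells and 100% = mean of positive control wells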
MgrA DNA FP – S. aureus MgrA-DNA binding modulation; AID 602314; inhibition, %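 (about 10 µg/mL by stock and volumes)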; fluorescence polarization; 84,000 compounds, 0.13% hits;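 active = above 50% in either of two replicates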;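 note: 0% = protein plus DNA without compound and 100% = DNA alone without protein; higher means less MgrA bound to DNA so lower polarization; one replicate is shown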
The depositor's hits bear a star; / = not tested or not shown.

Every second line gives: Sa helicase inh	MgrA DNA FP
- CC1CCN(C2=NC(Cc3ccccc3)C(=O)N2C2CCCCC2)CC1 (stereo not drawn)
  -2.0	/
- O=C(Nc1nnc(-c2ccc(Cl)cc2Cl)s1)c1cccc(F)c1
  19.0	/
- CCCCCCCCCC(=O)N[C@H](CN1CCOCC1)[C@H](O)c1ccccc1
  /	2.8
- CC(=O)N1CCC(N(CCCN2CCC(C)CC2)C(=O)Nc2ccccc2C(F)(F)F)CC1
  22.0	/
- CCOc1ccc(C(=O)N2CCSC2=S)cc1
  -7.0	/
- CC(C)N(C(=O)Cn1ncc2c(=O)oc3ccccc3c21)C1CCCCC1
  15.0	-1.6
- CN1CCN(C(=O)C(NC(=O)c2ccc(Cl)cc2)C23CC4CC(CC(C4)C2)C3)CC1 (stereo not drawn)
  -8.0	0.6
- CSc1nc(-c2ccccc2)[nH]c(=O)c1C#N
  /	-1.5
- COc1ccc(NC(=O)OC(C)C)cc1
  7.0	1.4
- Clc1cccc(Cc2nnc(-c3ccccc3)o2)c1
  11.0	0.6
- CCN(CC)CC(O)Cn1c(-c2ccccc2Cl)nc2ccccc21 (stereo not drawn)
  7.0	-0.7
- Cc1nc(-c2ccccc2)sc1C(=O)Nc1ccc(S(N)(=O)=O)cc1
  /	0.8
- O=C(c1ccccc1)c1ccc(N=Cc2ccccc2O)cc1
  -13.0	0.8
- O=C(O)c1ccccc1N(Cc1ccc(Br)cc1)C(=O)c1ccco1
  -9.0	/
- CC1[C@H](C(=O)NN)[C@H]1C(=O)NN (stereo partly drawn)
  /	-0.3
- COc1ccc(-n2cnc3cc(C(=O)NCc4cccnc4)ccc32)cc1
  16.0	/
- O=S(=O)(NC1CCN(Cc2ccccc2)CC1)c1cccc(C(F)(F)F)c1
  /	0.9
- O=C(OCc1c(Cl)cccc1Cl)c1ccc2ccccc2n1
  8.0	-1.1
- COC(=O)C1=CN(C)C=C(C(=O)OC)C1c1ccc2c(c1)OCO2
  -6.0	/
- NS(=O)(=O)c1ccc(-n2ncc(Cl)c(Cl)c2=O)cc1
  15.0	/
- O=c1c2ccccc2nc(-c2ccccc2)n1Nc1ccc(F)cc1F
  0.0	-6.8
- CC(=O)N1CCN(c2ccc(S(=O)(=O)N3CCCCC3)cn2)CC1
  -10.0	/
- CCC(=O)Nc1c2c(nn1-c1ccc(C)cc1)CSC2
  -18.0	/
- C1CN(c2nsnc2OCCOc2nsnc2N2CCOCC2)CCO1
  6.0	/
- Cc1cc(C)c(C(=O)COC(=O)c2ccc(N(C)C)cc2)c(C)c1
  -6.0	/
- COc1ccc(CN2C(=O)C(C)SC2c2cccnc2)cc1 (stereo not drawn)
  /	2.4
- COc1cccc(-n2c(SCC(=O)N3CCCCC3C)nc3ccccc3c2=O)c1 (stereo not drawn)
  -12.0	/
- CCOC(=O)c1c(C)[nH]c(C(=O)COC(=O)c2ccccc2)c1C
  -18.0	/
- CCCOC(=O)C1=C(C)N(C)C(=O)NC1c1cc(Br)c(O)c(OC)c1 (stereo not drawn)
  /	-2.4
- O=C(C1CCN(c2ccc(-c3cccs3)nn2)CC1)N1CCN(Cc2ccc3c(c2)OCO3)CC1
  8.0	/
- N#Cc1ccc(OCC(=O)OCC(=O)N2CCCCC2)cc1
  2.0	/
- CCCc1nc2ccccc2nc1C
  /	6.3
- COc1ccc(OC)c(S(=O)(=O)NC2CCS(=O)(=O)C2)c1 (stereo not drawn)
  /	0.9
- O=C(CN1CCc2ccccc21)NCc1ccc2c(c1)OCO2
  -6.0	/
- CC1Cc2ccccc2N1Cc1nnc(-c2ccccc2)o1 (stereo not drawn)
  13.0	/
- Cc1ccccc1NC(=O)Cc1nc(CSc2nnc(-c3ccccc3)n2C)cs1
  -8.0	/
- CC(Oc1ccc(F)cc1)C(=O)O (stereo not drawn)
  1.0	-2.9
- Nc1nc(-c2ccc(S(=O)(=O)N3CCOCC3)cc2)cs1
  25.0	/
- CN(CC(=O)Nc1ccc2c(c1)OCCCO2)C1=NS(=O)(=O)c2ccccc21
  21.0	/
- COc1ccc(-c2cc3ccccc3n2CC(O)CN2CCCCCC2)cc1 (stereo not drawn)
  -20.0	/
- CCC1C(O)=C(c2ccccn2)C(=N)N1c1ccccc1 (stereo not drawn)
  -12.0	/
- CC(C)CCNC(=O)c1ccc(S(=O)(=O)N2CCCC2)cc1
  -4.0	/
- Cc1c(C(=O)NC2=NCCS2)oc2ccccc12
  8.0	-3.9
- CC(=O)N(Cc1nnc2c3ccccc3c(C)nn12)c1ccccc1
  7.0	-1.4
- CCOC(=O)COc1nc(-c2ccccc2)cc(-c2ccccc2)c1C#N
  /	-0.8
- Cc1ccc(S(=O)(=O)N2CCC(C(=O)NC3CC3)CC2)cc1
  -2.0	/
- COc1cc(Br)cc(CNc2cc(C)on2)c1O
  4.0	-1.6
- COc1ccccc1OC(C)C(=O)O (stereo not drawn)
  3.0	/
- COc1ccc(C2c3c(oc4ccccc4c3=O)C(=O)N2CCCO)cc1 (stereo not drawn)
  15.0	/
- O=S(=O)(/C=C/c1ccccc1)N1CCNCC1
  -19.0	-1.7
- C=C(C)CSc1nnc(C)c(=O)[nH]1
  15.0	/
- O=C(NC(=S)Nc1ccccc1CO)C1CCCCC1
  8.0	/
- CCOC(=O)c1csc(NC(=O)CSc2cc(Cl)ccc2Cl)n1
  /	-2.4
- CCOC(=O)Cc1nn(CC(N)=S)c(=O)c2ccccc12
  /	0.0
- CN(C)S(=O)(=O)c1ccc(C(=O)N2CCC(c3nc4ccccc4o3)CC2)cc1
  -4.0	/
- Cc1nc2c(c(C)nn2C)c(C)c1CCC(=O)NC1CCCCC1
  -8.0	/
- Cc1cc(C(F)(F)Sc2ccc(Cl)cc2)n[nH]1
  /	5.6
- COC(=O)c1sc2ccccc2c1Cl
  /	-3.7
- COCC(C)n1c(C)cc(C(=O)COC(=O)c2c(C)nn(-c3ccccc3)c2C)c1C (stereo not drawn)
  -7.0	/
- CCc1nnc(NC(=O)C2CCCN2C(=O)Nc2ccccc2)s1 (stereo not drawn)
  0.0	-0.1

Going on with the list:
Every second line gives: Sa helicase inh	MgrA DNA FP
- O=C(c1cc(Cl)c(O)c(Cl)c1)N1CCc2ccccc2C1
  -8.0	/
- Cc1ccccc1OCc1nnc(SCCC(=O)O)n1Cc1ccccc1
  5.0	-1.5
- CCCc1cc(=O)n2[nH]cnc2n1
  7.0	-1.9
- Cc1ccc(-c2nn(Cc3ccccc3)cc2C(=O)N2CCC2)cc1
  -12.0	/
- CN(C)/C=N/C(=S)N1CCOCC1
  /	-0.6
- CCCN(CCC)S(=O)(=O)c1ccc(C(=O)NC(=S)Nc2ccc(F)cc2)cc1
  /	-0.7
- CC(=O)Nc1sc2c(c1C#N)CCN(C(C)=O)C2
  3.0	/
- Cc1onc(-c2c(Cl)cccc2Cl)c1C(N)=S
  /	-0.3
- O=C(CSc1ccccn1)c1ccc2c(c1)OCO2
  2.0	-2.1
- CCOC(=O)c1cccc(-c2ccc(/C=C3\C(=O)N(c4cccc(C(=O)O)c4)N=C3C)o2)c1
  /	0.3
- O=C(NCSc1ccnc(SCNC(=O)c2ccccc2)n1)c1ccccc1
  18.0	/
- CCC(=O)Oc1ccc(C(=O)Nc2cc(C(=O)O)cc(C(=O)O)c2)cc1
  7.0	1.2
- CCOC(=O)c1cc(-c2ccc(S(=O)(=O)Nc3cccc(SC)c3)s2)on1
  18.0	/
- NNC(=O)c1c(O)c2cccc3c2n(c1=O)CCC3
  8.0	/
- CCCNC(=O)CCn1c(=O)c2cccn2c2cccnc21
  0.0	1.2
- Cc1cc(=O)oc2cc(OC3OC(CO)C(O)C(O)C3O)ccc12 (stereo not drawn)
  5.0	0.1
- Cc1sc2nc(CCl)[nH]c(=O)c2c1C
  -3.0	0.5
- CSc1ccc(NC(=O)N2C3CCC2CC(O)(c2cccnc2)C3)cc1 (stereo not drawn)
  11.0	0.3
- Cc1ccc(Sc2c(C)c3cc4c(cc3[nH]c2=O)OCO4)cc1
  16.0	-0.5
- CCOC(=O)COc1ccc(C2C(C#N)=C(C)NC(C)=C2C#N)cc1
  /	0.0
- CC1CCc2nc(NC(=O)c3ccc(Cc4ccccc4)cc3)sc2C1 (stereo not drawn)
  1.0	0.9
- Cc1onc(-c2ccccc2)c1CNC(=O)c1cnn(-c2ccccc2)c1C
  /	0.0
- COc1cc(Cl)ccc1S(=O)(=O)n1nnc2ccccc21
  3.0	/
- CC(/C=N/O)Cc1ccc2c(c1)OCO2 (stereo not drawn)
  -6.0	/
- Cc1ccc(C(=O)NC(C)C)cc1
  12.0	-1.4
- COc1ccc(/C=C2\SC(=S)N(CCCC(=O)O)C2=O)cc1OC
  5.0	3.0
- CSc1ccc(CCNC(=O)C(C)n2sc3ccccc3c2=O)cc1 (stereo not drawn)
  17.0	/
- O=c1cc(-c2ccc(O)c(O)c2)oc2cc(O)cc(O)c12
  /	-0.8
- CCN(CC)C(=O)COc1ccc2c(CC(=O)O)coc2c1
  -8.0	/
- Cc1nc(C)n(C(C)CNS(=O)(=O)c2ccc(C)c(C)c2)n1 (stereo not drawn)
  -1.0	-1.6

Continued.
| smiles | Sa helicase inh | MgrA DNA FP |
| --- | --- | --- |
| COc1ccc(-c2csc(Nc3ccc(S(=O)(=O)Nc4cc(C)on4)cc3)n2)cc1C | 20.0 | 1.3 |
| O=C(CSc1nnc(CNC(=O)c2cccs2)o1)Nc1ccccc1 | 5.0 | / |
| O=C(O)CCC(C(=O)O)N1C(=O)/C(=C/C=C/c2ccco2)SC1=S (stereo not drawn) | 6.0 | / |
| C[N+]1(CC(=O)OCCCc2ccccc2)CCCCC1 | -24.0 | 0.5 |
| CCOc1cnc(-c2ccccc2)o1 | / | 1.9 |
| Cc1cccc(-n2nc(C)c3c(C)cc(=O)oc32)c1 | 9.0 | / |
| O=C(Nc1ccccc1)N1CCCN(c2c(Cl)cncc2Cl)CC1 | / | -0.1 |
| Cc1ccc(NC(=O)c2oc3ccc(S(=O)(=O)N4CCCC4)cc3c2C)c(C)c1 | 6.0 | / |
| Nc1ccc(/C=C\C(=O)O)cc1 | 17.0 | 0.4 |
| COc1ccc(/C=C2/SC(=O)N(CC(=O)Nc3ccc(S(=O)(=O)Nc4nc(C)cc(C)n4)cc3)C2=O)cc1OC | / | 1.8 |
| CSc1c(NC(=O)/C=C\C(=O)O)cccc1C(F)(F)F | 26.0 | / |
| N#C/C(C(N)=O)=C(/S)Nc1ccccc1 | 7.0 | / |
| O=C(CCCn1c(=O)oc2ccccc21)NNc1cccc(C(=O)O)c1 | -2.0 | / |
| COCc1cc(C)nc(SCC(=O)OC(C)C)c1C#N | 23.0 | 1.4 |
| O=C(N=Nc1c(O)n(CN2CCOCC2)c2ccc(Br)cc12)c1ccc(Br)cc1 | -23.0 | / |
| CC(C)(C)C1CCCCC1NC(=O)c1ccncc1 (stereo not drawn) | 22.0 | 0.0 |
| COC(=O)C(NC(=O)c1ccc(Cl)cc1Cl)C(C)C (stereo not drawn) | / | 0.3 |
| CCOc1ccc(NC(=O)Cn2c3c(c(-c4ccccc4)cc2=O)CCCC3)cc1 | -5.0 | 0.2 |
| CC1CCCC(C)N1C(=O)COC(=O)CN1C(=O)c2ccccc2C1=O (stereo not drawn) | -9.0 | / |
| Cc1noc(C)c1CSCC(=O)O | -15.0 | / |
| CCN(CC)C(=O)c1cnc(-c2ccccc2)nc1C1CCNCC1 | 8.0 | / |
| O=C(O)CNC(=O)/C=C/c1ccccc1 | / | -4.0 |
| Cc1cc(C)nc(NS(=O)(=O)c2ccc(NC(=O)COc3ccc4ccccc4c3)cc2)n1 | / | -0.7 |
| CC(=O)NC(C)c1nc2ccccc2n1C (stereo not drawn) | -24.0 | / |
| CCOC(=O)C1Cc2c([nH]c3ccccc23)CN1 (stereo not drawn) | 7.0 | -3.7 |
| CC1CC(C)CN(C(=O)c2ccc(C(F)(F)F)cc2)C1 (stereo not drawn) | -10.0 | / |
| CC(C)(CNC(=O)Nc1ccc(Cl)c(Cl)c1)N1CCOCC1 | 12.0 | / |
| CC(=O)Nc1ccc(OCCOc2ccc(/C=C3/C(=N)N4C=CSC4=NC3=O)cc2)cc1 | 8.0 | 2.5 |
| CCCN(CCC)S(=O)(=O)c1ccc2c(c1)CCCN2C(C)=O | 15.0 | 0.3 |
| Cc1ccc(CNC(=O)c2noc(C)c2Cn2nc(C)cc2C)cc1 | 21.0 | / |
| Cc1ccc(C=Nc2ccc(Cl)cc2)o1 | 3.0 | 2.3 |
| Cc1ccc(NC(=O)COC(=O)c2ccc(OCc3c(C)noc3C)cc2)c(C)c1 | -3.0 | / |
| Clc1nc(SCc2ccccc2)nc2ccccc12 | 9.0 | / |
| CCCNC(=O)NC1CCCCCCC1 | 9.0 | 2.8 |
| CCOC(=O)c1cnn(-c2ccccn2)c1N | 17.0 | / |
| O=C(O)c1ccc(NC(=NCc2ccccc2)N2CCN(c3ccc(F)cc3)CC2)cc1 | -1.0 | / |
| COCC(C)n1c(COc2ccccc2F)nnc1SCC(=O)NC(=O)NC1CCCCC1 (stereo not drawn) | -2.0 | / |
| CCOc1ccc(C(=O)Nc2ccc3oc(-c4cccc(F)c4)nc3c2)cc1[N+](=O)[O-] | / | 0.5 |
| CC(C)COC(=O)NCc1ccc2c(c1)OCO2 | 13.0 | -0.5 |
| Cc1ccccc1Nc1cc(C(=O)NCc2ccccc2)c2ccccc2n1 | -6.0 | 2.9 |
| Cc1ccc(-c2nn(-c3ccccc3)cc2/C=C\C(=O)N2CCOCC2)cc1 | -13.0 | -1.6 |
| COc1ccc(C2=NS(=O)(=O)N(C)C(C(=O)N3CCCCC3)=C2)cc1 | -14.0 | / |

Ordered by the number under Sa helicase inh (high to low): some entries from above
SMILES	Sa helicase inh
CCOC(=O)c1cnn(-c2ccccn2)c1N	17.0
CC(C)COC(=O)NCc1ccc2c(c1)OCO2	13.0
Cc1ccccc1Nc1cc(C(=O)NCc2ccccc2)c2ccccc2n1	-6.0
Cc1ccc(-c2nn(-c3ccccc3)cc2/C=C\C(=O)N2CCOCC2)cc1	-13.0
COc1ccc(C2=NS(=O)(=O)N(C)C(C(=O)N3CCCCC3)=C2)cc1	-14.0

Only part of the results is shown; count on the stated rates, not on these rows.
